High-throughput results from PubChem.
Yeast UUG start: modulators of yeast start codon fidelity, primary screen, whole organism, S. cerevisiae, single point, plate reader. S. cerevisiae UUG-firefly luciferase reporter, luminescence/redox ratio. activity score, % at 18.7 µM. 0.13% of 350,000 active. AID 602363, 2012;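 active = replicate mean at a twofold rise or more, about +100% in these data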;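 note: firefly luciferase made from a UUG start codon reports start codon fidelity; reporter light over untreated wells divided by growth signal over untreated wells; some hits fall short of that in this replicate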
PABP polyA inh: PABP poly(A) RNA binding inhibitors, primary screen, biochemical, fluorescence polarization, uHTS; 1% of 290,000 active; inhibition, % at 35 µM; AID 2014, 2009; Polyadenylate-binding protein 1 (Homo sapiens), P11940;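 active = 50% or more with normal probe brightness, or confirmed in later tests; inconclusive = above 50% with abnormal brightness, or retests that disagree; inactive = below 50% or failed in later tests; about a fifth of its hits are not listed in these tables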;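 note: calls also rest on retests at 20 µM and on dose response follow-up; controls were probe without protein and protein plus probe with vehicle; some compounds called inactive have numbers as strong as hits; many hits fall short of the cut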
Target sequence (P11940 whole entry, looked up): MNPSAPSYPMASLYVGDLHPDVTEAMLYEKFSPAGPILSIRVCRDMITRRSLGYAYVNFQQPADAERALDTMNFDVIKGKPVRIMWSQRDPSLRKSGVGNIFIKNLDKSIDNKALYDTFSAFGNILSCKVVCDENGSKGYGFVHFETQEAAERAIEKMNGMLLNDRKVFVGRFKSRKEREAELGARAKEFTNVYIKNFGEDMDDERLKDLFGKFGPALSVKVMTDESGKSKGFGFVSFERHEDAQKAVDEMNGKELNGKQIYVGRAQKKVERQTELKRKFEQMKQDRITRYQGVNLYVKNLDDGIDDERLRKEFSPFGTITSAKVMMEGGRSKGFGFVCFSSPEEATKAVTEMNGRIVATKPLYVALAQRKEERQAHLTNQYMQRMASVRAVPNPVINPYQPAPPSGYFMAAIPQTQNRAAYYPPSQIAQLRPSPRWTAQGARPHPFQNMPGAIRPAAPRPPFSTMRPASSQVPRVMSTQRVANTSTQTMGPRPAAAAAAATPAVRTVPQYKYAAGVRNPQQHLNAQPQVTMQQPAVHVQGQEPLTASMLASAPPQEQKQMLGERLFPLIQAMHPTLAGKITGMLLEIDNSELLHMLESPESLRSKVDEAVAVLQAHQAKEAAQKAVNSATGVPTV
Rce1 inhib: yeast Rce1p protease inhibitors, primary screen, biochemical, fluorescence, cell-free homogeneous; 0.27% of 290,000 active; AID 2563, 2010; calls only; yeast membranes, quenched prenylated peptide cleavage fluorescence;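 active = fall in fluorescence gain of 50% or more versus controls, with final raw signal at or below 3038400; inconclusive = same 50% fall but final raw signal above 3038400; inactive = fall in fluorescence gain under 50%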;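 note: plate controls were neutral control wells for no effect and wells lacking membranes for full effect; tested at 10 µM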
Target sequence (Q03530 whole entry, looked up): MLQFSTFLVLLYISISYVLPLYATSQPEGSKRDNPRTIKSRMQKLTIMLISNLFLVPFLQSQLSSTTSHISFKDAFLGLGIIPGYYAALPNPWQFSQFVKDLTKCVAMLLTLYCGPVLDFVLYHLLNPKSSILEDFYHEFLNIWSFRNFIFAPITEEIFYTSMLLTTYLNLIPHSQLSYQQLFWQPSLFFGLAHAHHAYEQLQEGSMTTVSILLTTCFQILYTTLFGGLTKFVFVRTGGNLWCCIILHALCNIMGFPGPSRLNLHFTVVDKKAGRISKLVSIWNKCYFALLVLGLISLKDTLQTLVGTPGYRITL
eIF4H inh: human eIF4H binding inhibitors, primary screen, translation initiation inhibitor project, biochemical, uHTS, fluorescence polarization; Eukaryotic translation initiation factor 4H (Homo sapiens), Q15056; eIF4H fluorescence polarization binding assay; inhibition, % at 35 µM; 0.94% of 290,000 active; AID 2012, 2009;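 active = 50% or more with normal probe brightness, or confirmed in later tests; inconclusive = above 50% with abnormal brightness, or retests that disagree; inactive = below 50% or failed in later tests; about a fifth of its hits are not listed in these tables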;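 note: calls also rest on retests at 20 µM and on dose response follow-up; 0% = protein and probe with vehicle and 100% = probe without protein; strong numbers were not always called active; many hits fall short of the cut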
Env fusion inh: inhibitors of HIV-1 Env-driven cell-cell fusion, primary screen, HeLa-JRFL effector, CEM21 target cells, luciferase; inhibition, % at 12.3 µM; 1.1% of 360,000 active; AID 651610, 2012;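 active = mean replicate inhibition score of at least 50 and every replicate individually at or above 50; inconclusive = only one of the two criteria met; inactive = mean below 50 and not all replicates reaching 50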;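 note: 0% = plate neutral controls and 100% = maraviroc near 300 nM; one replicate is shown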
CSC inhib: cancer stem cell viability inhibitors, primary screen, luminescence | inhibition, % at 7.5 µM | 1.1% of 300,000 active | cancer stem cell-like cells viability;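 active = mean at 75% or more and at least half the replicates too; inconclusive = mean and replicates disagree; tested in HMLE shEcad cells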;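 note: 0% = median of negative and 100% = median of positive control wells; the first replicate is given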
MT1-MMP act inh: blockers of MT1-MMP proenzyme processing, primary screen, HT1080 RFP-PRO-GFP cells, GFP/RFP fluorescence; GFP/RFP ratio fluorescence, overnight; percent of plate control window, DMSO zero; GFP/RFP ratio change, % at 20 µM; 0.061% of 360,000 active; AID 651647, 2012;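 active = GFP/RFP ratio change of at least 30% with cell ATP level not reduced by more than half and red fluorescence within 50% of control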; note: strong numbers were not always called active
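Compound: 20 µM single dose, 1% DMSO / System: HT1080 RFP-PRO-GFP cells / Controls: DMSO and RFP-L50D-GFP cell wells / Read-out basis: GFP/RFP fluorescence ratio / Schedule: overnight compound exposure at 37 °C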
eIF4H inh retest: second read-out of eIF4H inh, no call of its own (marks repeat the call); inhibition, %; compound at 20 µM; confirmation average;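 mean of two retest wells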
PABP polyA inh retest: second read-out of PABP polyA inh, no call of its own (marks repeat the call); inhibition, %; compound at 20 µM; confirmation repeats;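 mean of two retest wells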
MT1-MMP act inh RFP: recorded beside MT1-MMP act inh, whose call it bears; RFP signal change, %; measured here: RFP expression control read;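 0 = vehicle wells; hits needed this value within 50% of zero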
Numbers without * were called inactive; i = inactive; u = inconclusive; x = not tested or not shown.

SMILES | Yeast UUG start | PABP polyA inh | Rce1 inhib | eIF4H inh | Env fusion inh | CSC inhib | MT1-MMP act inh | MT1-MMP act inh RFP | others
CC(C)S(=O)(=O)c1csc(NC(=O)Nc2cc(Cl)ccc2Cl)c1Cl | x | 1 | x | -16 | 10 | 66 | 5 | -9
CC(=O)Nc1ccc(NC(=O)CCC(=O)OCC(=O)c2ccc(C)c([N+](=O)[O-])c2)cc1 | x | -3 | i | -16 | -2 | -7 | 2 | 2
COc1ccc(CCNC(=O)c2ccc3c(c2)N(Cc2ccc(F)cc2)CCS3)cc1OC | -16 | 6 | i | -2 | 27 | 3 | -1 | -7
O=C(CCc1nc(-c2ccccc2)c(-c2ccccc2)o1)OCc1ccc(Br)cc1 | -14 | 3 | i | -9 | u | 10 | 5 | 3
Cc1ccc(OCC(=O)O/N=C(\N)Cc2cccs2)cc1C | -23 | x | i | x | x | -1 | 6 | 0
CC(C)(C)c1ccc(NC(=S)NCCc2ccccn2)cc1 | x | -3 | i | 1 | -3 | 8 | 3 | -4
CN(C)/C=C(/C(=O)c1ccc(Cl)cc1Cl)S(=O)(=O)c1ccccc1 | 24 | 0 | x | 4 | -60 | x | 6 | -2
Cc1cccc(NC(=O)CSc2nnc(-c3cc(C)[nH]n3)n2N)c1 | -20 | -6 | i | -10 | 9 | -3 | 2 | 5
O=C(Nc1ccccc1)OC(CN1CCCCC1)C(F)(F)F (stereo unspecified) | -6 | 9 | i | 1 | x | 5 | -3 | 4
COc1ccc(N2CCN(C(=O)c3cccs3)CC2)cc1 | -9 | -2 | i | -3 | -9 | -2 | -2 | -1
CC(C)(O)/C=C/C[C@](C)(O)C1CC[C@]2(C)C1[C@H](O[C@H]1O[C@@H](CO)[C@H](O)[C@@H](O)[C@@H]1O)CC1[C@@]3(C)CC[C@H](O)C(C)(C)C3[C@@H](O)C[C@]12C (stereo partly specified) | 17 | x | x | x | -20 | -13 | -4 | 6
CC(C)OP(=O)(OC(C)C)C(O)c1ccc(N(C)C)cc1 (stereo unspecified) | x | -10 | i | 6 | -9 | -13 | 3 | 2
COc1ccc2c(C(=O)NCc3ccc4c(c3)OCO4)c(-c3ccc(S(C)(=O)=O)cc3)sc2c1 | -12 | x | x | x | 15 | x | 6 | -5
CC(=O)Nc1ccc(NS(=O)(=O)c2ccc(C)cc2)c([N+](=O)[O-])c1 | 10 | 6 | i | -1 | -4 | -5 | -6 | -3
C=CCc1cc(Cl)ccc1OCCN1CC(C)OC(C)C1 (stereo unspecified) | x | 8 | i | 18 | -4 | 22 | -2 | -2
CN1CCN(c2ccc(NC(=O)c3ccc4c(c3)OCCO4)cc2)CC1 | x | -18 | i | 3 | 5 | 1 | 1 | 3
COc1c(Cl)cc(Cl)cc1/C=C/C(=O)c1ccc(NC(=O)c2cccs2)cc1 | -9 | 0 | i | -9 | -33 | 103* | -15 | -29
CN(CCCC(=O)NCc1ccco1)S(=O)(=O)c1ccccc1 | x | -6 | i | 8 | x | 7 | 4 | 7
CCOc1cc(C(=S)N2CCCCC2)ccc1OCC(=O)NCc1ccccc1 | -13 | -3 | i | -1 | 21 | 8 | 3 | 0
CC1CC(C)CN(C(=O)Cn2cc(C=O)c3ccccc32)C1 (stereo unspecified) | -9 | -8 | i | 0 | 10 | -7 | 1 | -1
COc1ccc(C)cc1N(C(=O)c1ccc(F)cc1)c1nc2ccccc2s1 | x | 5 | i | -6 | u | 14 | -9 | -11
CCN(CC)C(=O)CSc1nnc(-c2ccccc2)n1N | -11 | 3 | i | -2 | 24 | 0 | -2 | -5
CC(=O)Nc1ccc(NC(=O)C(C)Sc2nnc(-c3cccs3)o2)cc1 (stereo unspecified) | -16 | 1 | x | 5 | -8 | -12 | 0 | 2
CCc1ccc(CNC(=O)C2CC(=O)N(CCc3ccc(C)cc3)C2)cc1 (stereo unspecified) | -18 | -1 | i | -1 | 3 | -4 | 3 | -1
O=C1CSC(c2nn(-c3ccccc3)cc2-c2cc3ccccc3oc2=O)N1Cc1ccco1 (stereo unspecified) | -2 | 4 | x | -1 | 12 | 11 | 5 | -7

3 compounds from above, ordered by molecular weight, high to low.
SMILES | Yeast UUG start | PABP polyA inh | Rce1 inhib | eIF4H inh | Env fusion inh | CSC inhib | MT1-MMP act inh | MT1-MMP act inh RFP | others
CC(=O)Nc1ccc(NC(=O)CCC(=O)OCC(=O)c2ccc(C)c([N+](=O)[O-])c2)cc1 | x | -3 | i | -16 | -2 | -7 | 2 | 2
CC(=O)Nc1ccc(NS(=O)(=O)c2ccc(C)cc2)c([N+](=O)[O-])c1 | 10 | 6 | i | -1 | -4 | -5 | -6 | -3
O=C(Nc1ccccc1)OC(CN1CCCCC1)C(F)(F)F (stereo unspecified) | -6 | 9 | i | 1 | x | 5 | -3 | 4

3 neighbouring compounds already listed, quoted:
SMILES | Yeast UUG start | PABP polyA inh | Rce1 inhib | eIF4H inh | Env fusion inh | CSC inhib | MT1-MMP act inh | MT1-MMP act inh RFP | others
CC(C)OP(=O)(OC(C)C)C(O)c1ccc(N(C)C)cc1 (stereo unspecified) | x | -10 | i | 6 | -9 | -13 | 3 | 2
COc1ccc2c(C(=O)NCc3ccc4c(c3)OCO4)c(-c3ccc(S(C)(=O)=O)cc3)sc2c1 | -12 | x | x | x | 15 | x | 6 | -5
CC(=O)Nc1ccc(NS(=O)(=O)c2ccc(C)cc2)c([N+](=O)[O-])c1 | 10 | 6 | i | -1 | -4 | -5 | -6 | -3

Further entries follow:
SMILES | Yeast UUG start | PABP polyA inh | Rce1 inhib | eIF4H inh | Env fusion inh | CSC inhib | MT1-MMP act inh | MT1-MMP act inh RFP | others
CC(C)c1c(C(=O)N/N=C/c2ccc(OCc3ccc(F)cc3)cc2)nnn1-c1nonc1N | -4 | -2 | i | 0 | -20 | -4 | 4 | -7
O=C(Nc1ccc(Cl)c([N+](=O)[O-])c1)ONC1=NCCCCC1 | 5 | -8 | i | -1 | -2 | 1 | 0 | 0
CN[C@H]1C[C@H]2c3cc(Oc4ccccc4C)ccc3CCN2C(=O)[C@H]1[C@H](C)O | 8 | x | x | x | -18 | x | 7 | 0
CC1CN(C(=S)SCC(=O)c2ccc(Cl)cc2)CC(C)O1 (stereo unspecified) | x | -4 | i | -3 | -20 | -4 | -1 | 1
O=C(NC(=O)N1CCN(c2ccc(F)cc2)CC1)c1ccccc1 | -53 | -2 | i | 2 | -29 | 47 | 0 | 2
COc1cc(S(=O)(=O)N(C)C)ccc1Br | -19 | -5 | i | -2 | 14 | x | 3 | 5
CC1(C(=O)NS(=O)(=O)c2ccc(Br)cc2)CCN1C(=O)CC1CCCCC1 (stereo unspecified) | 2 | x | x | x | -2 | x | -3 | 4
Cc1ccccc1-n1nnnc1SCC(=O)NCC1CCCO1 (stereo unspecified) | x | 8 | i | -4 | 12 | -5 | 2 | 4
C=CCC[C@H](Cc1ccc(F)cc1)C(=O)OC[C@@H](C)NC(=O)[C@H](CC=C)CC(=O)NCCO | -3 | x | x | x | 17 | 17 | x | x
CC(=O)c1ccc(-n2nncc2-c2ccc([N+](=O)[O-])cc2)cc1 | x | -2 | i | -7 | 5 | -13 | -2 | 3
Cc1ccc2nc(Cl)c(C3CC(c4cccs4)=NN3S(C)(=O)=O)cc2c1 (stereo unspecified) | x | 16 | i | 4 | 2 | 11 | -2 | 1
O=S(=O)(c1ccc(F)cc1)N1CCN=C1SCc1cccnc1 | x | 4 | i | 0 | 18 | -10 | -1 | -1
CCOC(=O)Nc1ccc(S(=O)(=O)Nn2cnnc2)cc1 | -10 | 9 | i | -5 | x | -4 | -1 | -1
COC(=O)C1C(=O)NCC1c1ccccc1 (stereo unspecified) | -12 | 0 | i | -12 | -100 | -4 | -5 | 1
O=C1C2CCCN2C(c2ccc(Cl)cc2)N1c1nccs1 (stereo unspecified) | x | 0 | i | 2 | -19 | 1 | 2 | 9
CN(C)S(=O)(=O)c1ccc(N2CCCC2)c(C(=O)N2CCN(c3ccc([N+](=O)[O-])cc3)CC2)c1 | -3 | -18 | i | -7 | 17 | 15 | -1 | 3
Cc1cccc2c1c(N=NC(N)=S)c(O)n2C1OC(CO)C(O)C(O)C1O (stereo unspecified) | -14 | 4 | i | 12 | -4 | -6 | 4 | 5
CCOC(=O)C1CCN(C(=O)NS(=O)(=O)c2ccc(C)cc2)CC1 | -9 | 55* | i | 3.0* | 3 | -10 | -1 | 4 | eIF4H inh retest=92*;PABP polyA inh retest=73*
CC1CCCCC1NC(=O)Cn1cc([N+](=O)[O-])ccc1=O (stereo unspecified) | -11 | x | x | x | x | -6 | -2 | 3
CN(CC(=O)Nc1ccccc1C(F)(F)F)C(=O)c1cc2c(s1)CCCCC2 | 7 | x | i | x | -28 | 0 | 2 | -1
O=S1(=O)CCN(C2CCCCCC2)CC1 | 8 | x | x | x | -20 | x | -9 | 4
Cc1cccc(NC(=O)CC(C)S(=O)(=O)c2ccc3c(c2)NC(=O)CO3)c1C (stereo unspecified) | -24 | 20 | i | 8 | 17 | 10 | 1 | 0
COc1ccccc1C1CC(=O)NC(C)=C1C(=O)OC(C)C (stereo unspecified) | x | -10 | x | 1 | -3 | -2 | -1 | -1
CCOc1ccc(C(c2c(C)[nH][nH]c2=O)c2c(C)[nH][nH]c2=O)cc1OC | -38 | -2 | i | 1 | -61 | 1 | -1 | -3
COc1ccccc1CNc1nc(Nc2ccccc2-n2cccn2)c2sccc2n1 | -23 | x | x | x | 5 | x | 2 | -7
(listing goes on)
SMILES | Yeast UUG start | PABP polyA inh | Rce1 inhib | eIF4H inh | Env fusion inh | CSC inhib | MT1-MMP act inh | MT1-MMP act inh RFP | others
N#Cc1ccc(CN2CCN(CC(=O)Nc3ccccc3C(=O)NC3CC3)CC2)cc1 | -16 | x | x | x | x | -10 | 2 | 0
Cc1ccc(S(=O)(=O)N2CCC(C(=O)N/N=C/c3cccn3C)CC2)cc1 | -5 | x | x | x | -1 | -3 | 1 | 2
CC1CCN(CCCNC(=O)C2CC(=O)N(CCc3ccccc3)C2)CC1 (stereo unspecified) | -19 | -7 | i | -10 | 6 | -4 | 0 | 4
Cn1nnc2c[n+](CC(=O)c3ccc(Cl)cc3)cc(Br)c21 | -16 | 18 | i | 25 | 1 | 16 | -8 | -3
CCOC(=O)c1sc2nc(CC(C)C)c3c(c2c1N)CCC3 | x | -3 | i | 3 | -2 | 6 | 13 | 7
O=C(NNC(=S)NC(=O)c1cccs1)c1ccc(O)cc1 | -15 | 4 | i | 14 | 3 | -3 | 4 | 8

Entries from the list above with an NH in an aromatic ring (2):
SMILES | Yeast UUG start | PABP polyA inh | Rce1 inhib | eIF4H inh | Env fusion inh | CSC inhib | MT1-MMP act inh | MT1-MMP act inh RFP | others
Cc1cccc(NC(=O)CSc2nnc(-c3cc(C)[nH]n3)n2N)c1 | -20 | -6 | i | -10 | 9 | -3 | 2 | 5
CCOc1ccc(C(c2c(C)[nH][nH]c2=O)c2c(C)[nH][nH]c2=O)cc1OC | -38 | -2 | i | 1 | -61 | 1 | -1 | -3
